# FGF22 binding – binders of human FGF22 protein, primary screen, FGF22 synaptogenesis inhibitor project, biophysical, thermal shift, single point; 1.5% of 340,000 active; recombinant FGF22 thermal shift, SYPRO orange fluorescence; percent of sucrose octasulfate shift, DMSO zero; Fibroblast growth factor 22 (Homo sapiens), Q9HCT0; calls only at 9.99 µM; AID 651658, 2012;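 active means melting point raised past a set limit in the mean and every replicate; inconclusive means no clear call; three in four hits are not shown here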
# Target sequence (Q9HCT0 whole entry, looked up): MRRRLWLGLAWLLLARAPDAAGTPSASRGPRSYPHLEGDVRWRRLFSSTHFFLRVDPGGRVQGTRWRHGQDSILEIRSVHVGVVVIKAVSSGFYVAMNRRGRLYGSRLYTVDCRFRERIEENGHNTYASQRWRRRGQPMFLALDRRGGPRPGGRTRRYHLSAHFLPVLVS
# Beta2AR agonist – beta2AR agonists driving receptor internalization, primary screen, cell-based, FAP fluorogen, flow cytometry; Beta-2 adrenergic receptor (Homo sapiens), P07550; Am2.2-beta2AR cells; reference of the scale not given here; response, % (test concentration not listed); 0.43% of 340,000 active; AID 504454, 2011;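 active means response above a set limit, near 3 SD of response in nonfluorescent compounds, cut at about 42% in these data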;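 further: stock transfer was 100 nL into about 11 µL; a reference agonist was the positive control; negative values mostly stem from fluorescent compounds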
# ALR H2O2 inh – inhibitors of human ALR sulfhydryl oxidase, primary screen, biochemical, H2O2 detection, HRP-luminol luminescence, single point; inhibition, % (test concentration not listed); 3.8% of 290,000 active; purified ALR, DTT oxidation;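 active means mean and each replicate at 75% or more; inconclusive means only one of the two met; inactive means neither met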;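 further: stock transfer was 7.5 nL into about 7.5 µL; 0% = neutral wells and 100% = wells with inactivated enzyme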
# Target sequence (P55789 whole entry, looked up): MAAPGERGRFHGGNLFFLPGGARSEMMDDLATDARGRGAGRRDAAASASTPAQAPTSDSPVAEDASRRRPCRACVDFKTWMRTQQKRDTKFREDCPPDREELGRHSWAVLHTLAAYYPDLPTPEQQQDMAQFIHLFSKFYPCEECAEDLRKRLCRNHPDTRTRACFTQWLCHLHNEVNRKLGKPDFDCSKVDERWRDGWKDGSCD
# Ecoli rRNA inh – reduced GFP signal of wild-type E. coli, primary screen, bacterial rRNA inhibitor project, GFP/RFP fluorescence, OD600, single point; E. coli WT GFP vs humanized-ribosome RFP mutants, 24 h; stronger effect = lower value; DMSO median 0, no signal -100; GFP signal change (wild-type ribosome), % (no concentration beside the values); 1.6% of 350,000 active;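 active means significant combined selectivity score with lowered wild-type GFP, culture density cut under 30%, mutant RFP and density less affected; inactive means any of these conditions unmet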; further: one replicate is shown; some compounds called inactive have numbers as strong as hits
# UCH37 inh – inhibitors of human UCH37 deubiquitinase, primary screen, biochemical, Ub-AMC cleavage, fluorescence. purified proteasome/UCH37. inhibition, % (no concentration beside the values). 0.33% of 330,000 active;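 active means mean of two replicates above 20%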;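 further: 0% = compound-free wells with enzyme and 100% = wells lacking proteasome; stock transfer was 100 nL into about 20 µL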
#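 assay system = human UCH37 enzyme supplied as purified proteasome complex | amount = proteasome at 0.15 nM in the dispensed enzyme solution | schedule = 30 min compound-proteasome preincubation then 25 min substrate reaction, room temperature | measured by = fluorescence, ex 355 nm, em 460 nm | benchmarks = no-proteasome wells (full inhibition) and compound-free wells (no inhibition)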
# HNF4A DNA FP – change in binding of human HNF4A to DNA, primary screen, biochemical, fluorescence polarization, FITC-DNA; 0.3% of 360,000 active; activity change, % at 10 µM; 1 h; AID 1224865, 2016; Hepatocyte nuclear factor 4-alpha (Homo sapiens), P41235; in the data active means activity change above about 30%, passing the limit was not always enough;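 further: controls were the assay level and a saturating level of protein; the project sought stronger binding though the title names inhibitors; some compounds called inactive have numbers as strong as hits; positive values seem to mean higher polarization but the record does not say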
# Target sequence (P41235 whole entry, looked up): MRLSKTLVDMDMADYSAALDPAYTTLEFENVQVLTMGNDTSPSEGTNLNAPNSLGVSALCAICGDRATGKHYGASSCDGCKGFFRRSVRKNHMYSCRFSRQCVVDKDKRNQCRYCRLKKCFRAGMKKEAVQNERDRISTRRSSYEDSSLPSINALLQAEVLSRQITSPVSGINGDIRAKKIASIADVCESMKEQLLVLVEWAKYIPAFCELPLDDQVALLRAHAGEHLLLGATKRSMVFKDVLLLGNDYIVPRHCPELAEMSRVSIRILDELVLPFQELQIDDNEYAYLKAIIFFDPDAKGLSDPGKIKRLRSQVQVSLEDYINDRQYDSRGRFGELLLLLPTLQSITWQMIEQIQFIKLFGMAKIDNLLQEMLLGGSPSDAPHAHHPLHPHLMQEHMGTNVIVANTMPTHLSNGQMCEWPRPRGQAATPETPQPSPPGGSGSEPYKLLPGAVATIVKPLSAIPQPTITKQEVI
# Ecoli growth – E. coli growth inhibition, primary screen, OD600; 0.21% of 330,000 active; OD600 absorbance (concentration not given with the values); Escherichia coli growth, 23 h; stronger effect = lower value;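 active means OD600 absorbance below the run mean of sample wells minus 3.6 SD, in any replicate, cut at about 0.56 in these data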;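 further: stock transfer was 300 nL into about 60 µL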
# Ecoli rRNA inh OD600 – recorded beside Ecoli rRNA inh, whose call it bears; OD600 change, %; measured here: OD600 growth;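 optical density of the mix in the first replicate; 0 = DMSO median and -100 = no signal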
# Ecoli rRNA inh RFP – second read-out of Ecoli rRNA inh, no call of its own (marks repeat the call); RFP signal change, %; measured here: RFP humanized mutant strains;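 first replicate; 0 = DMSO median and -100 = no signal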
# * hit, by the source's call; i = inactive; ? = inconclusive; / = not tested or not shown. An excerpt (hit frequency here may not be typical).
Compound	HNF4A DNA FP	Beta2AR agonist	FGF22 binding	Ecoli growth	ALR H2O2 inh	Ecoli rRNA inh	Ecoli rRNA inh OD600	UCH37 inh	Ecoli rRNA inh RFP
CCC(CCc1ccccn1)C(=O)c1ccccc1 (stereo not drawn)	1.6	26	i	/	/	-3	-3	/	-1.8
CC(C)(C)NC(=O)NC(=O)COC(=O)Cn1cnc2ccccc2c1=O	-3.6	-2	i	0.62	0	13	8	1.6	2.8
Cc1cc(NC(=O)CSCC(=O)Nc2nc3ccccc3s2)no1	5.6	0	i	0.68	0	-15	-5	2.3	4.9
COc1ccc(C(=O)NC(C)c2ccc(-n3ccnc3)cc2)cc1[N+](=O)[O-] (stereo not drawn)	1.1	-31	i	0.62	1	2	-9	4.4	-0.5
COc1ccc(-c2cc(C(=O)N3CCCC3)no2)cc1OC	1.1	1	i	0.68	-8	-4	-10	1.2	1.3
Cc1ccc(NC(=S)NCCc2c[nH]c3ccccc23)c(C)c1	3.5	12	i	0.66	-1	-16	-8	3.3	7.2
COc1cc(Br)cc(CNc2ccc(F)c([N+](=O)[O-])c2)c1O	-0.5	9	i	0.67	65	-11	-11	1.6	-1.0
CC1CCC(NC(=O)COC(=O)C2=NN(c3ccccc3)C(=O)CC2)CC1 (stereo not drawn)	0.0	-4	i	0.69	/	4	10	3.2	-2.5
COc1ccc2c(c1)C1CC(C)(NC(=O)C1S(=O)(=O)c1ccc(F)cc1)O2 (stereo not drawn)	-0.2	3	i	0.66	32	4	-2	3.3	-6.4
COc1ccc(/C=C(\NC(=O)c2cccs2)C(=O)NC(C)(C)C)cc1OC	0.1	-1	i	0.66	/	12	10	6.0	1.0
CCOC(=O)c1c(NC(=O)CSc2nnc(-c3ccco3)o2)sc(C(C)=O)c1C	13	-2	/	0.77	-8	/	/	1.4	/
Cc1cc(C(=O)N/N=C/c2ccc(OCc3ccccc3)cc2)c(C)o1	-1.3	5	i	/	-3	-21	-27	/	-9.9
O=C1C=CC2(C=C1)O[C@H](Cc1ccccc1)[C@@H](Cc1ccccc1)O2	7.4	38	i	/	/	-14	-1	/	5.2
CC(C)NC(=O)C1CCN(C(=O)N(C)C)CC1	2.8	5	/	0.67	-5	/	/	-1.6	/
CCCCn1c(N)c(N(CCOC)C(=O)c2nn(CC)c(=O)c3ccccc23)c(=O)[nH]c1=O	-2.2	-3	i	0.67	-39	3	10	0.7	-1.8
Cc1cc(C)n(CC(O)COCc2ccccc2)n1 (stereo not drawn)	4.8	4	/	0.67	0	12	12	4.9	1.2
COc1ccc(CCC(=O)NCCS(=O)(=O)N2CCN(c3ccc(OC)cc3)CC2)cc1	3.4	6	i	0.69	12	-1	6	7.0	-2.3
CCOC(=O)CNC(=O)CNC(=O)c1ccc(OC(C)C)cc1	-1.1	6	i	0.63	-3	0	6	4.5	-0.4
Cc1ccc(NC(=O)CSc2ncn(-c3ccccc3)n2)cc1C	-2.4	-20	/	0.64	-3	7	19	0.3	2.3
COc1cc(C(=O)NC2CCCc3c2cnn3-c2ccccc2F)cc(OC)c1OC (stereo not drawn)	-0.6	10	i	0.67	-1	-4	-14	0.2	0.2
CCOCC(=O)Nc1nc2ccccc2s1	-0.5	-6	/	0.73	86*	/	/	-2.4	/
COc1cc(C(=O)NNC(=S)NC(=O)c2ccc(F)cc2)cc(OC)c1OC	0.8	-4	i	0.63	?	-49	-42	5.6	-13
CCOc1ccc(C2c3[nH]c4ccccc4c3CCN2Cc2cccn2-c2ncccn2)cc1 (stereo not drawn)	2.6	25	i	0.67	/	-13	0	-2.0	0.8
Cc1ccc(C(=O)Nc2ccc(C(=O)N/N=C/c3cccnc3)cc2)cc1	-4.2	26	i	/	-3	-2	2	/	-1.8
COc1ccc(CNCCNC(=O)c2nonc2N)cc1OC	-1.4	8	/	0.68	-4	3	3	2.5	-2.8

# Overlap with the part before: 7 compounds, then new ones.
Compound	HNF4A DNA FP	Beta2AR agonist	FGF22 binding	Ecoli growth	ALR H2O2 inh	Ecoli rRNA inh	Ecoli rRNA inh OD600	UCH37 inh	Ecoli rRNA inh RFP
Cc1ccc(NC(=O)CSc2ncn(-c3ccccc3)n2)cc1C	-2.4	-20	/	0.64	-3	7	19	0.3	2.3
COc1cc(C(=O)NC2CCCc3c2cnn3-c2ccccc2F)cc(OC)c1OC (stereo not drawn)	-0.6	10	i	0.67	-1	-4	-14	0.2	0.2
CCOCC(=O)Nc1nc2ccccc2s1	-0.5	-6	/	0.73	86*	/	/	-2.4	/
COc1cc(C(=O)NNC(=S)NC(=O)c2ccc(F)cc2)cc(OC)c1OC	0.8	-4	i	0.63	?	-49	-42	5.6	-13
CCOc1ccc(C2c3[nH]c4ccccc4c3CCN2Cc2cccn2-c2ncccn2)cc1 (stereo not drawn)	2.6	25	i	0.67	/	-13	0	-2.0	0.8
Cc1ccc(C(=O)Nc2ccc(C(=O)N/N=C/c3cccnc3)cc2)cc1	-4.2	26	i	/	-3	-2	2	/	-1.8
COc1ccc(CNCCNC(=O)c2nonc2N)cc1OC	-1.4	8	/	0.68	-4	3	3	2.5	-2.8
O=C(CSc1ccccn1)Nc1nc2ccccc2s1	1.5	-13	/	0.69	0	/	/	2.4	/
Cc1nc(-c2ccc(S(=O)(=O)Nc3cc(S(=O)(=O)N(C)C)ccc3C)s2)cs1	-4.8	-3	i	0.66	2	-10	-4	1.8	2.6
S=C(NCCN1CCOCC1)Nc1cccc(Cl)c1	0.7	3	/	0.68	-2	/	/	-24	/
COc1cc2c(cc1OC)CN(C(=O)CSc1nnc3scc(-c4ccccc4)n13)CC2	0.0	2	i	0.74	8	-6	-10	-12	0.2
COc1cc2c(cc1OC)CN(CC(=O)Nc1cccc(C)c1)CC2	1.2	1	/	0.64	-13	/	/	-7.0	/
COc1ccc(-c2noc(N3CCC(C(=O)NCCCN4CCC(C)CC4)CC3)n2)cc1	6.4	-2	i	0.71	-12	/	/	1.2	/
COc1cc(Nc2nc3ccccc3n3nnnc23)cc(OC)c1OC	13	10	i	0.69	/	2	7	-17	0.9
O=C(COC(=O)c1ccc(Br)o1)Nc1ccc2c(c1)OCCO2	5.3	-3	i	0.66	14	/	/	-1.3	/
CCOC(=O)C1(Cc2ccccc2C)CCCN(C(=O)c2cc(C3CC3)[nH]n2)C1 (stereo not drawn)	1.2	5	/	0.69	-4	-23	-26	0.5	-1.8
CCOC(=O)C1CCN(C(=O)c2cccnc2Oc2ccccc2)CC1	-4.6	1	i	0.7	0	2	5	4.8	1.3
Fc1ccc(N2C(=S)SC(=Nc3ccccc3)C2=Nc2ccccc2)cc1	-1.5	-10	i	/	/	3	-46	/	20
CC(=O)Nc1ccc(S(=O)(=O)N[C@@H](C)C(=O)OCc2cc([N+](=O)[O-])cc3c2OCOC3)cc1	-0.7	5	i	0.67	-1	4	3	2.5	4.4
O=C(CN1C(=O)c2ccccc2C1=O)NCc1ccccn1	0.3	12	/	0.7	-5	/	/	-0.6	/
Cc1[nH]ccc(=O)c1OCc1c(Cl)cccc1Cl	-1.1	0	/	0.68	-1	/	/	1.9	/
COc1cc(NS(=O)(=O)c2ccc(N=Cc3c(C)[nH]n(-c4ccccc4)c3=O)cc2)nc(OC)n1	-1.5	-3	/	0.68	5	/	/	10	/
CCN(C(=O)Cc1c(C(=O)O)n(CC)c2ccccc12)c1ccccc1C	-3.9	2	i	0.67	7	-4	-6	-1.6	2.0
CSCc1cc(N2CCOCC2)nc(SCc2ccc(Cl)cc2Cl)n1	3.4	-1	/	0.66	-5	/	/	5.4	/
CS(=O)(=O)N1CCC(C(=O)Nc2ccc(Cl)c(Cl)c2)CC1	0.0	-5	i	0.64	-7	-5	-13	2.9	-4.1
CC1CC(C)CN(CC(C)(C)NS(=O)(=O)c2ccc(Cl)cc2)C1 (stereo not drawn)	1.2	-1	/	0.73	-5	/	/	5.2	/
Cc1cccc(OCC(O)Cn2c(-n3nc(C)cc3C)nc3c2c(=O)[nH]c(=O)n3C)c1 (stereo not drawn)	0.9	1	/	0.78	-5	/	/	-1.3	/
CCOc1ccc(C(=O)NC(=S)NCCCN2CCOCC2)cc1	5.8	-1	i	0.62	4	3	3	3.0	4.0
Cc1ccc(F)c(S(=O)(=O)NC(=O)C2(C)CCN2C(=O)CCc2cccs2)c1 (stereo not drawn)	-1.0	/	i	/	/	14	31	/	3.0
Cc1ccc2c(CC(=O)NNC(=O)c3ccccc3O)coc2c1	0.0	-2	i	0.65	12	-21	-28	-8.2	-1.4
CCOC(=O)C1(C)C=C(Nc2ccc(O)cc2)C(=O)N1c1ccc(O)cc1 (stereo not drawn)	2.6	52*	i	0.64	100*	-3	0	3.6	17
CCOC(=O)c1sc(-c2ccc(F)cc2)cc1NC(=O)Nc1ccccc1OC	1.1	-7	/	0.77	-20	/	/	-3.5	/
Cc1c(O)nc(SCC(=O)Nc2ccc3c4c(cccc24)CC3)n(-c2ccc(F)cc2)c1=O	2.8	10	/	0.66	/	/	/	2.0	/
Cc1ccc(/C=C/C(=O)N2CCN(S(=O)(=O)c3ccc(C)c(C)c3)CC2)o1	0.4	9	/	0.74	6	/	/	-0.4	/
N#C/C(=C\c1ccc(-c2ccc(C(=O)O)cc2)o1)c1nc2ccccc2[nH]1	145	-82	i	0.72	/	3	4	3.5	11
CC(=O)c1ccc(OCC(O)CN2CCN(S(=O)(=O)c3cccc(Br)c3)CC2)cc1 (stereo not drawn)	-1.0	0	i	/	-32	2	-16	/	4.9
O=C(NC(Cc1ccccc1)C(=O)O)OCc1ccccc1 (stereo not drawn)	2.3	-3	/	0.67	3	/	/	2.9	/
CCN(C(=O)COc1ncnc2sccc12)c1ccccc1	-1.6	-7	i	0.62	0	15	-1	-1.0	0.6
CC[N+]1(CC)CC2=Cc3c(ccc4ccccc34)CC2C1 (stereo not drawn)	2.3	5	/	0.72	/	2	-1	-5.2	-1.8
Cc1ccc(NC2SC(=O)N(CC(=O)O)C2=O)cc1 (stereo not drawn)	-2.1	4	/	0.61	11	/	/	-2.3	/
CC1CCC(C(=O)NC(C(=O)NCCN2CCC(C)CC2)C(C)C)CC1 (stereo not drawn)	0.6	1	/	0.69	/	/	/	4.4	/
O=C(Nc1ccccc1)NC1CCS(=O)(=O)C1 (stereo not drawn)	3.0	6	/	0.67	-1	/	/	0.5	/
COc1ccc(N(CC(=O)NC2CCCC2)C(=O)CCC(=O)Nc2cc(C)on2)cc1	-0.6	-11	i	0.71	/	3	2	0.4	-0.9
CCc1ccc(C2CC(=O)N(c3cccc(F)c3)C3=C2C(=O)OC3)cc1 (stereo not drawn)	-0.6	1	i	0.72	-9	-5	2	1.4	-1.5

# Screening data deposited in PubChem by several laboratories.
